Screening results deposited in PubChem by Center for Chemical Genomics, University of Michigan.
HIV TAR-Tat: HIV-1 TAR-Tat binding disruption; 100,000 tested, 0.6% active; z-score (test concentration not listed); HIV-1 TAR RNA, Tat peptide displacement FRET; active compounds read high; AID 1259389;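 note: score is relative to mean and SD of negative controls; some compounds called inactive have numbers as strong as hits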
CDC25B CDK2 inh: human CDC25B-CDK2/CyclinA binding inhibition; 94,000 tested, 0.72% active; AID 1259370; HTRF CDC25B-CDK2/CyclinA binding, anti-His/anti-Flag; active compounds read high; z-score (no concentration beside the values);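 note: score is relative to mean and SD of negative controls; strong numbers were not always called active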
* marks the source's active call; other numbers are inactive results; · = not tested or not shown.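 Rule for the calls: active = z-score from 3 up in half or more of its runs; inactive = the rest.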

Values run as follows: HIV TAR-Tat, CDC25B CDK2 inh
1. CC1=C(c2ccc(C)cc2)S(=O)(=O)N=C1Nc1ccc(C)c(C)c1
→ -2.1, -2.4
2. C1CCc2c(c(N3CCOCC3)nc3sc4c(NCCN5CCOCC5)nnnc4c23)C1
→ ·, -1.9
3. COS(=O)(=O)c1ccc2c(c1C)OC(C)(C)CC2=O
→ ·, -1.2
4. CCc1nnc2sc(-c3ccc(C(C)(C)C)cc3)nn12
→ -0.22, -0.69
5. O=C(CC(=O)Nc1ccc2nc3n(c(=O)c2c1)CCCCC3)Nc1ccc(F)cc1
→ 0.44, -1.8
6. CC(C(=O)NCCCN1CCCC1=O)n1sc2ccccc2c1=O (configuration not stated)
→ 1.6, -0.8
7. COc1ccc(-c2nnc(SCc3cccc4ccccc34)o2)c(OC)c1
→ 0.62, -0.58
8. Cc1nn(C(C)C(=O)NCCCN2CCC(N3CCCCC3)CC2)c(=O)c2c1sc1ccccc12 (configuration not stated)
→ 1.9, -1.2
9. CN(CC(=O)N1CCc2ccccc2C1)c1nnc(N2CCCC2=O)s1
→ 0.95, ·
10. Oc1c(C(Nc2cccc(C(F)(F)F)c2)c2ccccn2)ccc2cccnc12 (configuration not stated)
→ ·, 0.09

Some of the entries so far, in transposed form:
2: C1CCc2c(c(N3CCOCC3)nc3sc4c(NCCN5CCOCC5)nnnc4c23)C1
3: COS(=O)(=O)c1ccc2c(c1C)OC(C)(C)CC2=O
4: CCc1nnc2sc(-c3ccc(C(C)(C)C)cc3)nn12
5: O=C(CC(=O)Nc1ccc2nc3n(c(=O)c2c1)CCCCC3)Nc1ccc(F)cc1
6: CC(C(=O)NCCCN1CCCC1=O)n1sc2ccccc2c1=O (configuration not stated)
7: COc1ccc(-c2nnc(SCc3cccc4ccccc34)o2)c(OC)c1

compound no.	2	3	4	5	6	7
HIV TAR-Tat	·	·	-0.22	0.44	1.6	0.62
CDC25B CDK2 inh	-1.9	-1.2	-0.69	-1.8	-0.8	-0.58

Continuation:
Values run as follows: HIV TAR-Tat, CDC25B CDK2 inh
11. CCC1(C)Cc2ccccc2C(NC(=O)Nc2ccc(Br)cc2)=C1C#N (configuration not stated)
→ 0.89, -0.7
12. OCCCc1nc2n(n1)C(c1ccc(Cl)cc1)C=C(c1ccccc1)N2 (configuration not stated)
→ 2.4, -1.7
13. O=C(Oc1c(CN2CCOCC2)cc(Cl)c2cccnc12)c1ccc(Cl)cc1
→ ·, -0.31
14. COc1cc(C2SC(NC(C)=O)=NN2C(C)=O)ccc1OCc1ccc(Br)cc1 (configuration not stated)
→ 0.87, -2.2
15. Cc1ccc(S(=O)(=O)c2cn(Cc3ccc(F)cc3)c3ccc(F)cc3c2=O)cc1
→ 0.03, 0.59
16. CCC(C)OC(=O)C(C)Oc1ccc2c(=O)c(-c3ccc(Cl)cc3)coc2c1 (configuration not stated)
→ 0.12, -0.38
17. Cc1ccc(-c2cc3nc(-c4ccncc4)cc(C(F)(F)F)n3n2)cc1
→ -0.04, 3
18. C(=NCc1cccs1)c1cccs1
→ ·, -2.3
19. O=C(C1CCN(c2ccc(-c3cccs3)nn2)CC1)N1CCN(c2ccccn2)CC1
→ 0.94, ·
20. Cc1ccc(S(=O)(=O)c2nc(S(C)(=O)=O)sc2N(C)Cc2ccccc2)cc1
→ -1, -2.7
21. CCc1nc(-c2csc(S(=O)(=O)Nc3ccc(F)cc3C)c2)no1
→ 0.52, ·
22. COc1ccc(-c2onc(C)c2C)cc1S(=O)(=O)NCCCN1CCCC1
→ -0.15, ·
23. Clc1ccc(CCNc2nc3ccccc3n3nnnc23)cc1
→ -0.27, -1.9
24. Cc1onc2c1c(=O)n(C)c(=O)n2C
→ ·, -0.39
25. O=C1CCCC2=C1C(c1cccs1)n1nc(SCc3cccc(F)c3)nc1N2 (configuration not stated)
→ 1.4, -2.7
26. COCCOC(=O)C1=C(C)NC2=C(C(=O)CCC2)C1c1cccc2ccccc12 (configuration not stated)
→ -1.1, -0.33
27. O=C(CCC(=O)OCC(=O)c1cccs1)Nc1cccc2cccnc12
→ -0.89, -0.52
28. c1ccc(CNc2cc(-c3ccccc3)nc3nncn23)cc1
→ -0.07, 4.6*
29. CCCCCC(=O)Nc1ncc2c(n1)CC(c1cccs1)CC2=O (configuration not stated)
→ -0.45, 1
30. CCN(CC)c1c(S(=O)(=O)c2ccc(Cl)cc2)cnc2ccccc12
→ 0.85, 0.41
31. COc1ccc(-c2nn3c(=O)c(NC(=O)c4ccc(OC)c(OC)c4)cnc3o2)cc1
→ -3.5, ·
32. Cc1cc(C)cc(Oc2ncnc3sc(C)cc23)c1
→ -1.2, ·
33. O=C(CCC(=O)N1CCOc2ccc(Cl)cc21)NCCCN1CCC(N2CCCCC2)CC1
→ -0.01, -2.5
34. O=C(NCc1ccc2c(c1)OCO2)c1cc(-c2cccnc2)nc2ccccc12
→ 0.95, ·
35. Cc1cc(=O)oc2c1c(C)nn2-c1ccc(C(=O)O)cc1
→ 0.56, -1.1
36. CC(C)CCNC(=O)c1noc2ncnc(N3CCOCC3)c12
→ -0.08, ·
37. CSc1nnc2c(n1)OC(c1cc(Br)c(I)o1)Nc1ccccc1-2 (configuration not stated)
→ ·, -3.8
38. Cn1c(=O)c(=O)n(C)c2cc(S(=O)(=O)N3CCCC3C(=O)N3CCc4ccccc43)ccc21 (configuration not stated)
→ 2.3, 0.12
39. CSc1cc(C(C)(C)C)nn1S(=O)(=O)c1ccc(Cl)cc1
→ ·, -1
40. COc1ccc(-c2noc(CSc3nc4ccccc4[nH]3)n2)c(OC)c1
→ 1.5, -0.17

In the list so far, 6 have fluorine.
Values run as follows: HIV TAR-Tat, CDC25B CDK2 inh
5. O=C(CC(=O)Nc1ccc2nc3n(c(=O)c2c1)CCCCC3)Nc1ccc(F)cc1
→ 0.44, -1.8
10. Oc1c(C(Nc2cccc(C(F)(F)F)c2)c2ccccn2)ccc2cccnc12 (configuration not stated)
→ ·, 0.09
15. Cc1ccc(S(=O)(=O)c2cn(Cc3ccc(F)cc3)c3ccc(F)cc3c2=O)cc1
→ 0.03, 0.59
17. Cc1ccc(-c2cc3nc(-c4ccncc4)cc(C(F)(F)F)n3n2)cc1
→ -0.04, 3
21. CCc1nc(-c2csc(S(=O)(=O)Nc3ccc(F)cc3C)c2)no1
→ 0.52, ·
25. O=C1CCCC2=C1C(c1cccs1)n1nc(SCc3cccc(F)c3)nc1N2 (configuration not stated)
→ 1.4, -2.7

Later entries:
Values run as follows: HIV TAR-Tat, CDC25B CDK2 inh
41. CNc1nc(N2CCOCC2)c2cnn(C)c2n1
→ 0.89, ·
42. CCCCC(=O)Nc1c2c(nn1-c1cccc(Cl)c1)CS(=O)C2 (configuration not stated)
→ ·, -0.76
43. O=C(NCCC1=CCCCC1)c1ccc2c(c1)NC(=O)C1CCCCN21 (configuration not stated)
→ 1.2, ·
44. CCCC12CN3CC(CCC)(CN(C1)C3c1ccc(N)cc1)C2=O (configuration not stated)
→ -0.52, -2
45. CCOC(=O)C1=C(C)NC2=C(C(=O)CC(c3ccccc3)C2)C1c1ccccc1Cl (configuration not stated)
→ -0.28, -0.18
46. Cc1cc(NS(=O)(=O)c2ccc(NC(=O)c3cnc4scc(C)n4c3=O)cc2)nc(C)n1
→ ·, -1.8
47. CN(CCNC(=O)c1cc(-c2cccnc2)nc2ccc(Br)cc12)C1CCCCC1
→ -0.54, ·
48. CNC(=O)CN1c2ccccc2NC2=C(C(=O)CCC2)C1c1ccco1 (configuration not stated)
→ -9.5, ·
49. COc1ccc(CNc2cc(-c3ccccc3)nc3nncn23)cc1
→ 0.51, 3.9
50. COc1ccc(C2CC(=O)Nc3cc(OC)c(OC)cc32)cc1OC (configuration not stated)
→ 2.3, 0.01
51. CC1CSc2ccc(S(=O)(=O)N3CCC(CN4CCc5ccccc5C4)CC3)cc2NC1=O (configuration not stated)
→ 0.91, ·
52. Cc1nc2nc[nH]c2cc1Br
→ ·, 0.17
53. O=C1c2ccccc2C(=O)N1CCCN1CCN(c2nccc(C(F)(F)F)n2)CC1
→ ·, -2.6
54. CCOC(=O)c1cc(-c2ccc(S(=O)(=O)Nc3ccc(OCC)cc3)s2)on1
→ -1.5, ·
55. Cc1nn(C)c(C)c1CNS(=O)(=O)c1cccc(Cl)c1
→ -0.44, ·
56. O=C(Nc1cccnc1)c1ccc2cccc(O)c2n1
→ 6.4*, ·
57. Cc1ccc2nc(NC(=O)C(Cc3c[nH]c4ccccc34)NC(=O)OC(C)(C)C)sc2c1 (configuration not stated)
→ ·, -2
58. O=C(C1CCC(=O)N1S(=O)(=O)c1ccccc1)N1CCCCC1 (configuration not stated)
→ 0.67, ·
59. C#CCN1C(=O)C(O)(CC(=O)c2ccc3c4c(cccc24)CC3)c2ccccc21 (configuration not stated)
→ ·, -1.6
60. CN(C)c1ccc(C2C(C#N)=C3N=C(N)c4ccccc4N3C3=C2C(=O)CC(C)(C)C3)cc1 (configuration not stated)
→ -5.1, 0.4

More results
#	compound	HIV TAR-Tat	CDC25B CDK2 inh
61	Cc1nn(CC(=O)NCCCN2CCCCC2C)c(=O)c2cccn12 (configuration not stated)	3	-1.4
62	CCNc1nc(NC(C)C)nc(OCCNS(=O)(=O)c2ccc(C)cc2)n1	0.38	0.42
63	O=C(Nc1cccc2nsnc12)C1CCCN(S(=O)(=O)N2CCCC2)C1 (configuration not stated)	-1.2	·
64	O=c1[nH]c2c(s1)C(c1ccc(F)cc1)C1C3CCC(C3)C1S2 (configuration not stated)	1.7	-0.7
65	Cc1ccc(Nc2cc(C)nc3nc(-c4ccco4)nn23)c(Cl)c1	1.2	·
66	Cn1ccnc1SCC(=O)NC1Cc2ccccc2C1	·	-1.6
67	COc1ccc(-n2c(=O)c3c4c(sc3n(CC(=O)NC3CCCC3)c2=O)CCCC4)c(OC)c1	0.83	-0.69
68	Cc1nn(C)c(C)c1NC(=O)CCSc1nc(-c2ccco2)cc(C(F)(F)F)n1	-1.5	1.1
69	CCc1nn(C(C)C(=O)NCC2CCCO2)c(=O)c2cc3occc3n12 (configuration not stated)	·	-1.1
70	CC1CCCN(S(=O)(=O)c2ccc(S(=O)(=O)N(Cc3ccccc3F)C3CCCC3)cc2)C1 (configuration not stated)	0.71	-0.92
71	Cc1ccc(OCCSc2ncn(-c3nc(C)cc(N4CCCC4)n3)n2)cc1	1.2	-0.53
72	CCOC(=O)c1c(C)nsc1NC(=O)Oc1ccccc1	·	-2.7
73	CCOc1ccc2nc(SCc3ccc(C)cc3)[nH]c2c1	0.92	-1.7
74	CC(=O)N1c2ccc(S(=O)(=O)N3CCCC3)cc2CC1C(=O)N1CCc2ccccc2C1 (configuration not stated)	1.9	·
75	CCc1nn2c(=O)cc(CSc3nnc(-c4cccs4)o3)nc2s1	-0.6	-0.25
76	O=C(CN1CCSc2ccccc21)N1CCc2ccccc2C1	1.8	·
77	CC(=O)Nc1nnc(SCc2cc(=O)n3ccsc3n2)s1	-0.85	·
78	Cn1c(=O)oc2cc(S(=O)(=O)Nc3ccc(F)c(Cl)c3)ccc21	·	-2.1
79	O=C(Cn1ncn2nc(-c3cccs3)cc2c1=O)N1CCN(c2ccccn2)CC1	-0.13	-0.32
80	O=C(CSc1ccc2nc(-c3ccccc3)cn2n1)NCc1ccco1	0.62	·
81	Clc1cccc(CN2CCc3nc(N4CCOCC4)ncc3C2)c1	0.7	·
82	Cc1ccccc1C1N2CC3(C(C)C)CN1CC(C(C)C)(C2)C3=O (configuration not stated)	·	-0.25
83	CC12CN(S(=O)(=O)c3ccccc3)CC(C)(CN(S(=O)(=O)c3ccccc3)C1)C2O (configuration not stated)	·	-0.3
84	O=c1c2cccnc2n(Cc2ccccc2Cl)c(=O)n1C1CCCCC1	1.1	0.13
85	Cn1c(=O)c(=O)n(C)c2cc(N3CCCCC3)c(NC(=O)CN3CCOCC3)cc21	-0.85	0.27
86	Cc1ccc(S(=O)(=O)N2CC3(C)CN(S(=O)(=O)c4ccc(C)cc4)CC(C)(C2)C3=O)cc1	·	-1.6
87	CCS(=O)(=O)Nc1ccc(C2=NN(S(C)(=O)=O)C(c3ccco3)C2)cc1 (configuration not stated)	·	0.04
88	CCc1nnc(NC(=O)CCSCCc2ccccn2)s1	1.6	·
89	CC1CC(C)CN(c2nc(Nc3ccc(Cl)cc3)c3cnn(C)c3n2)C1 (configuration not stated)	1.2	·
90	CC1CCN(C(=O)Cn2cc(SCC(=O)N3CCCC3)c3ccccc32)CC1	0.27	·
91	CSc1cccc(NC(=O)N2CCN(c3nc4cc(F)ccc4n4cccc34)CC2)c1	0.31	·
92	O=C(/C=C/C=C/c1ccccc1)N1CCCCC1	·	-0.38
93	O=C(CCSc1nc(-c2ccco2)cc(C(F)(F)F)n1)Nc1cccnc1	-4	0.42
94	COc1ccc(OCCn2c(C(C)N3CCOCC3)nc3ccccc32)cc1 (configuration not stated)	-0.5	-0.12
95	Cc1nc2sc3ccccc3n2c(=O)c1S(=O)(=O)Nc1ccc(Br)cc1	1.2	·
96	CC1CCN(S(=O)(=O)c2ccc3c(c2)N(CC(=O)N2CCOCC2)C(=O)CS3)CC1	·	-1.5
97	COC(=O)C1=C(C)Nc2c(c(=O)n(C)c(=O)n2C)C1c1ccc(Br)cc1 (configuration not stated)	1.7	1.1
98	CC(C)(C)S(=O)(=O)c1ccc(Cl)nn1	0.23	-0.63
99	Cc1ccc2[nH]c(=O)c(-c3noc(C)n3)cc2c1	0.01	-1.2
100	Cc1cc(=O)n2nc(N3CCCC3C(=O)NC3CCCC(C)C3C)sc2n1 (configuration not stated)	0.93	-0.65
101	O=C(Nc1c(C(=O)N2CCN(c3ccc(F)cc3)CC2)oc2ccccc12)c1cccs1	1.9	·
102	CCCS(=O)(=O)c1nc(S(=O)(=O)c2ccc(C)cc2)c(NCc2cccs2)s1	-1.7	0.49
103	OC1(C2CCN3Cc4ccccc4N=C23)CCNCC1 (configuration not stated)	-0.15	·
104	Cc1ccc(CNS(=O)(=O)c2ccc(-c3cc(C)no3)s2)cc1	0.46	·
105	O=C(Cc1ccccc1)Nc1nonc1-c1ccc(Br)cc1	1.6	0.07
